Mtb UGM inh: inhibitors of M. tuberculosis UDP-galactopyranose mutase. P9WIQ1. purified UGM, fluorescence polarization probe displacement. inhibition, % at 10 µM. hit rate 0.06% among 320,000. AID 504406; in the data active means inhibition above about 10%, passing the limit was not always enough
MazEF act: increases E. coli MazEF RNase cleavage of RNA | hit rate 0.32% among 350,000 | activation, % at 20 µM | FAM/BHQ RNA-DNA oligo cleavage fluorescence, 5 h | P0AE70 | AID 504720; in the data active means activation above about 50%
Target sequence (P0AE70 whole entry, looked up): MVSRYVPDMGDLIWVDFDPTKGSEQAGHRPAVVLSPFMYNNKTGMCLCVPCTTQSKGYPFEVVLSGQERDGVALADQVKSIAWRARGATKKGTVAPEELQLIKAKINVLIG
Rv3671c protease: inhibitors of M. tuberculosis serine protease Rv3671c. AID 2606. inhibition, % at 5.96 µM. P9WHR9. hit rate 0.048% among 320,000; in the data active means inhibition above about 38%;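 further: extracellular domain of Rv3671c used as enzyme; 0% = enzyme with DMSO and 100% = no enzyme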
DUSP3 inh: inhibitors of human VHR1 phosphatase (DUSP3); recombinant VHR phosphatase, pNPP absorbance; inhibition, % at 13.3 µM; hit rate 0.52% among 290,000; P51452; in the data active means inhibition above about 50%; further: some compounds called inactive have numbers as strong as hits
Target sequence (P51452 whole entry, looked up): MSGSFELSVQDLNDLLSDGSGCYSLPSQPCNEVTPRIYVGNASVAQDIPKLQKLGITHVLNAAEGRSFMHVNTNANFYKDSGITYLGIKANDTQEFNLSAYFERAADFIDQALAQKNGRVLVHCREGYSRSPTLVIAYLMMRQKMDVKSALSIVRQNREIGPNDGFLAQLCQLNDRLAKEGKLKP
* = called active by the depositor; x = not tested or not shown; & = joins results of further samples. An excerpt (hit frequency here may not be typical).

SMILES | Mtb UGM inh | MazEF act | Rv3671c protease | DUSP3 inh
O=C1NC[C@H](c2ccccc2)OC(=O)[C@H](Cc2ccc(F)cc2)CC/C=C/C[C@@H]1CC(=O)N(CCO)Cc1ccccc1 | -3.8 | 3 | 1 | x
Cc1nc(=O)c(-c2ccccc2)c(C)n1-c1ccc(O)c(C(=O)O)c1 | 1.5 | -10 | 7 | 26
CN(C)c1ccc(O)c2c1CC1CC3C(N(C)C)C(=O)C(C(N)=O)=C(O)[C@@]3(O)C(=O)C1=C2O (stereo not given in full) | -3.0 | 12 | 0 | x
COc1ccc(/C(N)=N/OC(=O)CSc2ccccc2)cc1 | 2.6 | -2 | -2 | 11
N[C@@H](Cc1cc(I)c(Oc2ccc(O)c(I)c2)c(I)c1)C(=O)O | -2.5&-1.8 | -21&-17 | -24&7 | 9
COc1cc2c(cc1OC)C1C(=O)c3cc(OS(C)(=O)=O)c(OC)cc3C1N(C)C2=O (stereo not given) | x | -2 | x | x
O=C1NC[C@H](c2ccccc2)OC(=O)[C@@H](Cc2ccc(F)cc2)CC/C=C/C[C@H]1CC(=O)N(CCO)Cc1ccccc1 | -2.6 | 5 | -3 | x
O=C1NC[C@@H](c2ccccc2)OC(=O)[C@@H](Cc2ccc(F)cc2)CC/C=C/C[C@H]1CC(=O)N(CCO)Cc1ccccc1 | 0.2 | -18 | 0 | x
CC(C)NC[C@@H](O)COc1ccc(CC(N)=O)cc1 | -2.8 | x | 6 | x
Cc1nc2ccccc2n1S(=O)(=O)c1ccc(F)cc1 | -0.8 | 2 | 3 | -22
O=C(CSc1ncnc2ccccc12)NCc1ccc2c(c1)OCO2 | -2.5 | -13 | -4 | 9
COc1cc(S(=O)(=O)n2c(C)nc3ccccc32)ccc1F | 0.0 | 6 | -14 | -1
O=C1NC[C@@H](c2ccccc2)OC(=O)[C@@H](Cc2ccc(F)cc2)CC/C=C/C[C@@H]1CC(=O)N(CCO)Cc1ccccc1 | 4.6 | -3 | -9 | x
CC(=O)Oc1ccc(-c2cc3ccc(OC(C)=O)cc3oc2=O)cc1 | -2.1 | -3 | 7 | x
O=C1NC[C@@H](c2ccccc2)OC(=O)[C@H](Cc2ccc(F)cc2)CC/C=C/C[C@H]1CC(=O)N(CCO)Cc1ccccc1 | 5.8 | -3 | -6 | x

Only Mtb UGM inh and Rv3671c protease, for some of the entries so far:
| compound | Mtb UGM inh | Rv3671c protease |
| --- | --- | --- |
| Cc1nc2ccccc2n1S(=O)(=O)c1ccc(F)cc1 | -0.8 | 3 |
| O=C(CSc1ncnc2ccccc12)NCc1ccc2c(c1)OCO2 | -2.5 | -4 |
| COc1cc(S(=O)(=O)n2c(C)nc3ccccc32)ccc1F | 0.0 | -14 |

7 records drawn at random from those above:
SMILES | Mtb UGM inh | MazEF act | Rv3671c protease | DUSP3 inh
COc1cc2c(cc1OC)C1C(=O)c3cc(OS(C)(=O)=O)c(OC)cc3C1N(C)C2=O (stereo not given) | x | -2 | x | x
O=C1NC[C@H](c2ccccc2)OC(=O)[C@H](Cc2ccc(F)cc2)CC/C=C/C[C@@H]1CC(=O)N(CCO)Cc1ccccc1 | -3.8 | 3 | 1 | x
COc1ccc(/C(N)=N/OC(=O)CSc2ccccc2)cc1 | 2.6 | -2 | -2 | 11
COc1cc(S(=O)(=O)n2c(C)nc3ccccc32)ccc1F | 0.0 | 6 | -14 | -1
O=C1NC[C@@H](c2ccccc2)OC(=O)[C@@H](Cc2ccc(F)cc2)CC/C=C/C[C@H]1CC(=O)N(CCO)Cc1ccccc1 | 0.2 | -18 | 0 | x
O=C(CSc1ncnc2ccccc12)NCc1ccc2c(c1)OCO2 | -2.5 | -13 | -4 | 9
CC(C)NC[C@@H](O)COc1ccc(CC(N)=O)cc1 | -2.8 | x | 6 | x

Next section
SMILES | Mtb UGM inh | MazEF act | Rv3671c protease | DUSP3 inh
O=C(O)Cn1nc(C(F)(F)F)c2c1CCCCC2 | -1.2 | 4 | 0 | -18
Cc1ccc2c(CC(=O)N3CCN(S(=O)(=O)c4ccc5c(c4)OCCO5)CC3)coc2c1 | 0.4 | -6 | -7 | 4
O=C(COc1ccc(Cl)cc1Cl)Nc1noc2ccccc12 | -2.8 | -7 | -1 | 20
O=C1CC2(CCCC2)CC(=O)N1CCCCN1CCN(c2ncccn2)CC1 | 0.1 | -1 | -8 | -3
